# Screening results (PubChem)
# HCMV UL50-53 inh = inhibitors of HCMV UL50-UL53 interaction, biochemical, HTRF; normalized percent inhibition; inhibition, % (concentration not given with the values); 190,000 tested, 0.15% active; AID 1918969, 2023;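 active = both replicates at 50% or more, plus weaker picks with an unusually low signal ratio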;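 also: stock transfer was 100 nL into about 20 µL; 0% = negative control wells and 100% = wells with untagged competitor protein; inactives centre near -12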
# GIV-Gai inh = inhibitors of GIV peptide binding to Galpha-i3, primary screen, biochemical, fluorescence polarization, FITC-GIV GBA peptide, rat Galphai3; percent of control (FP), % (concentration not given with the values); AID 1224905, 2016; 90 min; stronger effect = lower value; scaled: aluminum fluoride 0%, vehicle 100%; 210,000 tested, 0.42% active;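 active = replicate mean at 85% of control or lower, very high polarization wells dropped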;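 also: wells of about 15 µL received 100 nL stock; the first replicate is given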
# Target sequence (P08753 whole entry, looked up): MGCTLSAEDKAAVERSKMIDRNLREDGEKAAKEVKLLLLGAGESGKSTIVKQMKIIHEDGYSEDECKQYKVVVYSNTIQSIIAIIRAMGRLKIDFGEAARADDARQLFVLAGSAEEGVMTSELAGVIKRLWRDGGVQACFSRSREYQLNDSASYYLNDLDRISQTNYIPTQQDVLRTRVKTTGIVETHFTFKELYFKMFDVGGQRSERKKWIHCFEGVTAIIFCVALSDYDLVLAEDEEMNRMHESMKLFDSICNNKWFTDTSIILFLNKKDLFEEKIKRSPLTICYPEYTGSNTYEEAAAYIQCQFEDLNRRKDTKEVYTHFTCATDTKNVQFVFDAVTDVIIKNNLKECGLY
# Sa growth inh = S. aureus growth inhibition at 42 and 30 °C, primary screen, LtaS inhibitor project, RN4220, two temperatures; OD600, 20 h, 42 °C; stronger effect = lower value; AID 720641, 2013; relative growth, % (concentration not given with the values); 170,000 tested, 0.53% active;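 active = growth at 42 °C up to 50% and 20 or more points under that at 30 °C, or under 10% at both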;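 also: 300 nL library stock went into each well; scaled to the means of positive and negative controls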
# Sa growth inh second temp = further read-out of Sa growth inh, marked with its call; relative growth, %; measured here: growth at 30 °C;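 optical density after 20 h as mean of two plates; 100% = untreated growth and lower means inhibition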
# The depositor's hits bear a star; . = no result given; & = joins results of further samples.
# Each structure is followed by: HCMV UL50-53 inh | GIV-Gai inh | Sa growth inh | Sa growth inh second temp
COc1ccc(OC)c(S(=O)(=O)N2CC=C(c3c(C)n(CC(=O)N4CCCC4)c4ccccc34)CC2)c1
→ -14 | 111 | 108 | 95
Cc1cccc(N(C)Cc2nnc(-c3ccc4c(c3)OCO4)o2)c1
→ 5 | 101 | 91 | 83
NC(=O)CSc1nc2ccccc2c(=O)n1-c1cccc(Cl)c1
→ 1 | . | 100 | 97
CCCOc1ccc(Cn2c(=O)c3sccc3n3c(SCC)nnc23)cc1
→ 21 | 99 | . | .
O=C1C2C3C=CC(C3)C2C(=O)N1C1CC2CCC1C2 (stereo not given)
→ -12 | 103 | 105 | 74
CCOC(=O)c1oc2ccc(Br)cc2c1CSc1nnc(-c2ccc(OC)cc2)o1
→ 10 | . | 103 | 99
Brc1ccccc1Cn1cnc2ccccc21
→ -11 | 99 | 141 | 102
CC(=O)OC1CCN(c2ncc(C(F)(F)F)cc2Cl)CC1
→ -10 | 98 | . | .
CC(Oc1cccc2ccccc12)c1nc2c3ccccc3ncn2n1 (stereo not given)
→ 2 | 104 | . | .
COc1cccc2c1N=C1OC=CC1C2OC (stereo not given)
→ 54* | . | 95 | 89
COc1ccccc1-n1c(/C=C/c2c(C)n(C)c3ccccc23)nc2ccccc2c1=O
→ -22 | 111 | 117 | 84
Cc1c(C(=O)n2cnc3ccccc32)oc2ccccc12
→ -19 | 105 | 101 | 92
NC(=O)Cn1c(NCc2ccccc2)nc2ccccc21
→ -10 | . | 91 | 98
CCOC(=O)c1cc(/C(C)=N/NS(=O)(=O)c2cc(C(F)(F)F)cc(C(F)(F)F)c2)on1
→ -22 | 104 | 85 | 41
Cc1cc(C)c(NC(=O)CCCN2CCN(C)CC2)c(C)c1
→ -4 | 96 | 84 | 90

# Continued, overlapping the part above by 5 compounds.
# Each structure is followed by: HCMV UL50-53 inh | GIV-Gai inh | Sa growth inh | Sa growth inh second temp
COc1ccccc1-n1c(/C=C/c2c(C)n(C)c3ccccc23)nc2ccccc2c1=O
→ -22 | 111 | 117 | 84
Cc1c(C(=O)n2cnc3ccccc32)oc2ccccc12
→ -19 | 105 | 101 | 92
NC(=O)Cn1c(NCc2ccccc2)nc2ccccc21
→ -10 | . | 91 | 98
CCOC(=O)c1cc(/C(C)=N/NS(=O)(=O)c2cc(C(F)(F)F)cc(C(F)(F)F)c2)on1
→ -22 | 104 | 85 | 41
Cc1cc(C)c(NC(=O)CCCN2CCN(C)CC2)c(C)c1
→ -4 | 96 | 84 | 90
CSc1nc2c(c(=O)[nH]1)C(c1ccccc1)C1=C(CC(C)(C)CC1=O)N2 (stereo not given)
→ -3 | 95 | 119 | 84
Cc1[nH]c(=O)[nH]c(=O)c1/C=N/NC(N)=O
→ -30 | 101 | 88 | 83
O=C(Nc1ccccc1N1CCOCC1)c1cc2ccccc2oc1=O
→ . | 100 | 91 | 88
CCOc1ccc(-c2cc3c(=O)n(Cc4nc(-c5cccc(OC)c5OC)oc4C)ccn3n2)cc1Cl
→ 12 | 99 | 88 | 103
CCOC(=O)c1sc(S(C)(=O)=O)c2c1CC(C)(C)C/C2=N/O
→ -46 | 101 | 100 | 84
O=c1c2oc3ccccc3c2n(Cc2ccccc2)c(=O)n1Cc1ccco1
→ . | 105 | 101 | 98
CCOc1ccc(N=Cc2c[nH]c3ccc(Br)cc23)cc1
→ 9 | . | 93 | 96
CCc1ccc(CNC(=O)C(CC)n2nc(C)c3c(C)n(-c4ccccc4)nc3c2=O)cc1 (stereo not given)
→ . | 101 | 109 | 94
CC(C)Cn1c(-c2ccc(S(=O)(=O)N3CCOCC3)cc2)csc1=Nc1cc(Cl)ccc1Cl
→ -54 | 107 | 91 | 82
O=C(CSc1ccccc1)NCc1ccc2c(c1)CCN2C(=O)c1ccc(F)cc1
→ . | 99 | 98 | 92
COc1cccc(C(=O)N(Cc2nc(-c3ccc(Cl)cc3)no2)C(C)C)c1OC
→ -26 | 97 | 99 | 85
c1c2c(nc3c1CCCC3)CCCC2
→ -6 | 108 | 103 | 93
CC(C(=O)Nc1cc(Cl)c(Cl)cc1Cl)N(C)C (stereo not given)
→ -9 | . | 96 | 86
C#CC(OC(=O)c1ccccc1C(=O)O)c1ccccc1 (stereo not given)
→ 15 | 107 | 109 | 110
CCOC(=O)COc1ccc2c(c1)[nH]c1ccccc12
→ -1 | . | 110 | 104
Cn1cc(S(=O)(=O)Cc2ccc(Br)cc2)c2ccccc21
→ -36 | 99 | 84 | 91
OC(c1ccccc1)(c1ccccc1)C(CN1CCOCC1)c1ccccc1 (stereo not given)
→ 2 | 104 | 113 | 92
COc1ccc(CNC(=O)C2=C(C)C(=O)OC23CCCCC3)cc1
→ . | 103 | 99 | 93
O=C(Nc1ccccc1NS(=O)(=O)c1ccc(F)cc1)C1CCC1
→ 5 | . | 103 | 105
O=C1Cc2ccccc2C(=O)N1n1cnnc1
→ 11 | . | 80 | 84
CCC1CN(C(=O)N2CCC(C(=O)NCCN(CC)CC)CC2)c2cc(C)ccc2O1 (stereo not given)
→ -12 | 100 | 128 | 93
O=C(O)CC(C(=O)NCc1ccccc1)C1CCCO1 (stereo not given)
→ -34 | 107 | 99 | 83
CC(=O)OC1c2ccccc2NC(c2ccccc2)C1(C)C (stereo not given)
→ -14 | . | 96 | 90
O=C(Nc1cccc(C(F)(F)F)c1)C1COc2ccccc2O1 (stereo not given)
→ -17 | 102 | . | .
COc1ccc(Cn2ccn(CC(N)=O)c(=O)c2=O)cc1
→ -23 | 102 | 83 | 84
COC(=O)CN(Cc1ccccc1)S(=O)(=O)c1ccc2c(c1)OCCO2
→ 10 | 101 | 107 | 74
Cn1c(Cc2nc(-c3cnccn3)no2)nnc1SCc1ccccc1
→ 5 | 106 | 99 | 97
CC1=C(C#N)c2nc(N)c(C#N)c(C)c2/C1=C/c1ccc(-c2ccccc2[N+](=O)[O-])o1
→ -15 | 104 | . | .
O=C(Cc1coc2cc(O)ccc12)OCC(=O)N1CCCC1=O
→ -14 | . | 78 | 89
O=C(COc1ccccc1Cl)NCC1(N2CCOCC2)CCCCC1
→ 16 | 102 | 106 | 92
O=C(CCn1c(=O)oc2ccccc21)N1CCCCCC1
→ . | 105 | 91 | 89
CN(C)c1ccc(/C=C2\CCC(C3CCCC3)C2=O)cc1 (stereo not given)
→ . | 115 | 95 | 84
O=C(CCn1c(=O)oc2ccccc21)NCCCN1CCN(c2ccc(F)cc2)CC1
→ . | 110 | 115 | 86
CCOC(=O)C1=C(CC)Nc2ccccc2N=C1NC(=O)c1cc(OC)cc(OC)c1
→ -9 | . | 80 | 95
COc1cc(OC)c(NC2(c3ccccc3)C(=O)c3ccccc3C2=O)cc1Cl
→ . | 97 | 88 | 89
COc1ccc(OCC2CNC(=O)O2)cc1 (stereo not given)
→ 2 | 100 | 95 | 74
COC(=O)c1sc(S(=O)(=O)Nc2ccc(F)cc2)cc1Cl
→ -23 | 94 | 99 | 97
COc1ccc(N(CC(=O)NCCc2cccc(C)c2)S(=O)(=O)c2c(C)nn(C)c2C)cc1
→ -27 | 105 | 94 | 83
O=C(CCS(=O)(=O)c1cc(Br)cc2c1N(C(=O)C1CC1)CC2)Nc1ccc(Br)cc1F
→ -8 | 101 | 97 | 93
COc1cccc(CNC23CC4CC(CC(C4)C2)C3)c1OCc1ccccc1F
→ -7 | . | 91 | 60
Cc1nc(CSc2n[nH]c(=O)n2-c2ccccc2)cs1
→ 3 | 109 | 110 | 93
CC(C)NC(=O)N(Cc1cccnc1)Cc1ccc(Cl)cc1Cl
→ -25 | 103 | 102 | 83
NC(=O)C1(N2CCCCC2)CCN(C(=O)Nc2ccccc2)CC1
→ -17 | 101 | 87 | 80
NS(=O)(=O)c1ccc(CCNC(=O)C2CCCN(S(=O)(=O)c3cccc4nsnc34)C2)cc1 (stereo not given)
→ -55 | 96 | . | .
CC(=O)Nc1ccc2ccccc2c1
→ -22 | 94 | 82 | 80
Cc1cc(C(=O)COC(=O)c2cnccn2)c(C)n1-c1ccc2c(c1)OCO2
→ -26 | . | 98 | 94
CC1CCCC(C)N1C(=O)COC(=O)COc1ccc(C#N)cc1 (stereo not given)
→ -26 | . | 91 | 94
COc1ccc(-c2nc(SCC(=O)Oc3cc(C)ccc3C(C)C)n3[nH]c(=O)cc3n2)cc1
→ -12 | 101 | . | .
CCOc1ccc(CN(C)C(=O)CNC(C)c2ccccc2OC)cc1 (stereo not given)
→ 14 | . | 94 | 96
CNc1c(NC(C)=O)c(=O)oc2ccccc12
→ -8 | . | 96 | 83
CCCn1c(=O)c2sccc2n2c(CCCC(=O)NC3CCC(C)CC3)nnc12 (stereo not given)
→ . | 99 | 119 | 82
COC(=O)Cc1[nH]n(-c2ccccc2)c(=O)c1C(C)=Nc1ccccc1
→ -26 | 99 | 98 | 89
O=C1CCCCC1Nc1ccccc1 (stereo not given)
→ -14 | 102 | 89 | 68
Cc1ccc(OCCSc2nnc(-c3cccs3)o2)cc1Cl
→ 0 | 98 | 86 | 90
COc1ccccc1NC(=O)NC1CC2CCCC(C1)N2C1CC1 (stereo not given)
→ -26 | 103 | 80 | 89
O=S(=O)(/C=C/c1ccccc1)N1CCN(Cc2nnc(-c3ccccc3)o2)CC1
→ -15 | . | 95 | 96
Cc1ccc(-c2nc(S(=O)(=O)c3ccc(Cl)cc3)c(N3CCCCC3)o2)cc1
→ -49 | 107 | 95 | 84
NC(=O)NC(=O)CSc1ccccc1
→ -15 | . | 79 | 87
Cc1ccoc1C(=O)NCc1occc1C(=O)O
→ -16 | 104 | 102 | 101
Nc1cc(-c2cccs2)nn1-c1ccc(I)cc1
→ 7 | 98 | 102 | 112

# Random excerpt: 4 compounds from above, in no set order.
# Each structure is followed by: HCMV UL50-53 inh | GIV-Gai inh | Sa growth inh | Sa growth inh second temp
O=S(=O)(/C=C/c1ccccc1)N1CCN(Cc2nnc(-c3ccccc3)o2)CC1
→ -15 | . | 95 | 96
O=C1CCCCC1Nc1ccccc1 (stereo not given)
→ -14 | 102 | 89 | 68
Cc1ccoc1C(=O)NCc1occc1C(=O)O
→ -16 | 104 | 102 | 101
CCOc1ccc(CN(C)C(=O)CNC(C)c2ccccc2OC)cc1 (stereo not given)
→ 14 | . | 94 | 96

# (listing goes on)
# Each structure is followed by: HCMV UL50-53 inh | GIV-Gai inh | Sa growth inh | Sa growth inh second temp
CS(=O)(=O)NNc1nccc(-c2cccnc2)n1
→ -13 | 102 | 83 | 95
CN(C1CCCCC1)S(=O)(=O)c1ccc2c(c1)c(=O)c(C(=O)NCc1ccc(F)cc1)cn2C
→ -28 | 103 | 97 | 93
O=C(CCCSc1nnc(-c2ccccc2)o1)c1ccc(Br)cc1
→ -11 | . | 93 | 89
CCOC(=O)C(OC(=O)c1cccc(N2C(=O)c3c(C)nc4ccccc4c3C2=O)c1)c1ccccc1 (stereo not given)
→ -7 | 101 | . | .
Cc1nn(Cc2ccc(Cl)cc2)c(C)c1NC(=O)c1noc2c1CCc1ccccc1-2
→ 5 | 100 | 114 | 89
Cc1c2cnn(-c3ccccc3)c(=O)c2c(C)n1CCCC(=O)NC(C)c1ccccc1 (stereo not given)
→ -3 | 102 | 105 | 74
Cc1ccccc1-n1nc2c(c1NC(=O)c1ccc(S(=O)(=O)N3CCOCC3)cc1)CSC2
→ 3 | 101 | . | .
CC(=O)Nc1ccc(S(=O)(=O)N(C)C2CCCCC2)cc1
→ -2 | . | 101 | 109
CCOC(=O)c1oc2ccccc2c1CN(C)Cc1ccccc1F
→ -28 | . | 88 | 76
O=C(O)CC1C(=O)NCCN1CC1CCCCC1 (stereo not given)
→ 5&15 | 103&100 | 114 | 101
O=C(NCCCc1ccccc1)c1ccc(Cn2c(=O)c(=O)[nH]c3cccnc32)cc1
→ -12 | 105 | . | .
NS(=O)(=O)c1ccc(CNC(=O)NC23CC4CC(CC(C4)C2)C3)cc1
→ 3 | 114 | 99 | 101
COCCN1CCN(C2CCN(C(=O)NC(C)C)CC2)C(=O)C1=O
→ -6 | 100 | . | .
Clc1cccc(CNc2ncnc3c2nc2n3CCCC2)c1
→ . | 108 | 133 | 75
CCOC(=O)c1c(NC(=O)CSc2cn(CCNC(=O)c3ccc(OCC)cc3)c3ccccc23)sc2c1CCCC2
→ -17 | 104 | 90 | 93
CCOC(=O)C1=C(C)N=c2s/c(=C\c3ccc(Br)o3)c(=O)n2C1c1ccc(OCC)c(OCC)c1 (stereo not given)
→ -4 | 110 | . | .
COc1ccc(CNC(=O)COc2ncnc3c2cnn3-c2ccccc2)cc1
→ -14 | . | 95 | 92
CC1(C)CC(CC(=O)O)C(=O)O1 (stereo not given)
→ 6 | 108 | 77 | 96
CSC1=NC(C)(C)CC12C=CC(=O)C(C)=C2 (stereo not given)
→ -14 | . | 94 | 89
O=C(NCCN1CCN(c2cccc(Cl)c2)CC1)c1[nH]nc2c1COc1ccccc1-2
→ -30 | 104 | 92 | 31
O=C1/C(=N\O)CC2(C/C1=N/O)OCCO2
→ -60 | 97 | 92 | 77
